# Bm FixLJ act: B. multivorans fixK reporter activation; AID 1918990; B. multivorans fixK-promoter GFP reporter, 18 h; active compounds read high; z-score (test concentration not listed); actives 0.3% (n = 29,000);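 active = replicate mean overnight rise in green fluorescent reporter signal, 3 or more SD over negative controls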;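 note: score is relative to vehicle wells of the plate; 300 nL library stock went into each well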
# The depositor's hits bear a star. Some of the compounds tested, so the mix of outcomes need not match the whole.
No.	SMILES	Bm FixLJ act
1	Cn1c(=O)c2c(nc(N3CCOCC3)n2Cc2ccccc2F)n(C)c1=O	-0.69
2	COCCN(C)CC(=O)Nc1cccc(NC(=O)Cc2ccccc2)c1	-2.8
3	COc1ccc(OCCn2c(C3CC(=O)N(c4ccc(F)cc4)C3)nc3ccccc32)cc1 (stereo not drawn)	-3.3
4	COc1ccc(Cl)cc1NC(=O)c1cc2c(s1)-c1ccccc1OC2	-0.76
5	CCS(=O)(=O)Nc1ccc(C(=O)N2CCC3OCc4cnnn4C3C2)cc1 (stereo not drawn)	-0.39
6	Cc1cc(C)cc(NC(=O)CSc2nnc(COc3ccccc3Cl)o2)c1	0.24
7	COC(=O)C(C)Sc1ncnc2c1c(-c1ccccc1)cn2-c1ccc(F)cc1 (stereo not drawn)	1
8	CCn1c(CN2CCCN(Cc3ccccn3)CC2)nnc1C1CC(N)C1 (stereo not drawn)	-0.15
9	Cc1ccc(Cn2c(=O)c3cccnc3n(CC(=O)Nc3cc(Cl)ccc3C)c2=O)cc1	-1.1
10	CCOc1ccc(C2c3c(oc4ccc(C)cc4c3=O)C(=O)N2c2nc(C)c(C)s2)cc1OC (stereo not drawn)	0.09
11	Cc1ccc(F)cc1NC(=O)CNC(=O)c1cc(C(C)C)nn1C	-0.21
12	O=C(Cn1c(=O)n(Cc2ccco2)c(=O)c2cccnc21)Nc1ccccc1F	-0.6
13	COCC1CCCN1C(=O)c1ccc(-c2ncnc3[nH]ccc23)cc1 (stereo not drawn)	0.32
14	COc1ccc(NC(=O)c2ccco2)cc1NC(=O)COc1ccc(C)cc1C	-2.2
15	CC1=Nc2cc(C(=O)NCc3ccccc3Cl)ccc2Sc2c(C)ccc(C)c21	0.54
16	COCC1CCCN1S(=O)(=O)c1cccc(C(=O)N2CCC(C#N)CC2)c1 (stereo not drawn)	0.14
17	Cc1cn2c(=O)cc(COc3ccc(C(C)(C)C)cc3)nc2s1	0.77
18	Cc1cccc(Cn2c(-c3ccccc3)nc3ccccc32)c1	-1.1
19	CCOC(=O)c1c(NC(=O)COc2cccc(C)c2C)sc2c1CCC(CC)C2 (stereo not drawn)	-1.6
20	COCCCNc1nc2c(S(=O)(=O)c3ccccc3)nnn2c2ccc(Cl)cc12	0.36
21	COc1ccc(N2CCN(Cc3nnc(-c4ccc5c(c4)OCO5)o3)CC2)cc1	-0.74
22	Cc1cccc(N2CCN(C(=O)CCc3c(C)nc4ncnn4c3C)CC2)c1C	-0.61
23	O=C(c1ccccn1)C1CCCN(C(=O)CC2=CSC3=NCCCN23)C1 (stereo not drawn)	-1.5
24	Cc1oc2ccc(O)c(CN3CCCC3)c2c1C(=O)Nc1ccccc1	-0.77
25	COc1ccc(-c2cc(C(F)(F)F)nc(SCCC(=O)Nc3cccc(O)c3)n2)cc1	-0.51
26	O=C(Nc1cccc(C(F)(F)F)c1)c1noc2c1CCc1ccccc1-2	-0.98
27	COc1cc(NC(=O)COCc2cc(-c3ccc(F)cc3)on2)cc(OC)c1OC	-0.84
28	O=C(c1ccc(Cl)cc1)n1nc(-c2ccco2)nc1NCc1cccs1	-1.1
29	COc1ccc(C(=O)N2CCC(O)(c3ccc(C)cn3)CC2)c(F)c1F	-1.3
30	CC(=O)N1CCc2cc(Br)cc(S(=O)(=O)N3CCN(c4cc(C)ccc4C)CC3)c21	-1
31	Cc1cn2c(=O)cc(COc3ccccc3NC(=O)c3ccco3)nc2s1	-1.7
32	Cc1cc(C)n(-c2nnc(Nc3ccc(C)c(Cl)c3)c3ccccc23)n1	0.28
33	C#C[C@]1(O)CCC2C3CCC4=C(CCC(=O)C4)C3CC[C@@]21C (stereo partly drawn)	0.37
34	CC(=O)c1cccc(-n2c(=O)c3c4c(sc3n(CC(=O)c3ccccc3)c2=O)CN(C(C)=O)CC4)c1	0.39
35	CCOc1ccc(CCNC(=O)c2cc3c(-c4ccc(OC)c(OC)c4)nn(C)c3s2)cc1OCC	-0.19
36	CCOC(=O)c1cc2c(=O)n3ccccc3nc2n(CC2CCCO2)c1=NC(=O)c1ccc(OCC)cc1 (stereo not drawn)	-0.94
37	Cc1cccc(N(C)C(=O)C(Cc2ccccc2)NS(=O)(=O)c2cccc3nsnc23)c1 (stereo not drawn)	-0.56
38	O=C(C1CC1)N1CCC(c2nnc(CN3CCCC3)n2C2CC2)CC1	-0.86
39	COc1cccc(NC(=O)CSc2c3c(nc4ccccc24)CCCC3)c1	-1.7
40	Cc1cc(C)n(-c2nc3ccccc3nc2Nc2cc(C(=O)O)ccc2C)n1	0.57
41	Cc1nn(-c2nc(-c3ccc(F)cc3)cc(C(F)(F)F)n2)c(C)c1Br	0.03
42	CC(C)c1ccc2oc(-c3cc(NC(=O)c4cccs4)ccc3Cl)nc2c1	0.16
43	COc1ccccc1N1CCN(S(=O)(=O)c2c(C)sc3ncn(CC(=O)Nc4ccccc4F)c(=O)c23)CC1	-0.15
44	CCOC(=O)CCC(=O)O[C@H]1[C@H](O[C@@H]2[C@@H](C)[C@H](O[C@H]3C[C@@](C)(OC)[C@@H](O)[C@H](C)O3)[C@@H](C)C(=O)O[C@H](CC)[C@@](C)(O)[C@H](O)[C@@H](C)C(=O)[C@H](C)C[C@@]2(C)O)O[C@H](C)C[C@@H]1N(C)C	-1.1
45	Cc1cc(C)c(NC(=O)Cn2c(=O)n(CCC(C)C)c(=O)c3cccnc32)c(C)c1	-0.2
46	O=C(Cn1nc(C(F)(F)F)c2c1CCCC2)Nc1ccc(F)c(Cl)c1	-1.4
47	Cc1cccc(-c2noc(CN(C(=O)COc3ccc(C(C)C)cc3)C(C)C)n2)c1	1.8
48	C#C[C@]1(O)CC[C@H]2[C@@H]3CCC4=CC(=O)CC[C@@H]4[C@H]3CC[C@@]21C	-2.1
49	Cc1cccc(CN2CC(C(=O)O)C3(CCN(C(=O)C4CCCC4)CC3)C2)n1 (stereo not drawn)	0.95
50	Cc1[nH]cnc1CN1CCN(CCCc2ccccc2)C2CS(=O)(=O)CC21 (stereo not drawn)	-1.5
51	CS(=O)(=O)c1ccc([C@@H](O)[C@@H](COC(=O)CN)NC(=O)C(Cl)Cl)cc1	-1.7
52	CCCCCOc1ccc(C2c3c(oc4ccccc4c3=O)C(=O)N2c2nc(C)c(C)s2)cc1OCC (stereo not drawn)	-1.4
53	CCc1ccc(NC(=O)N2c3ccccc3Sc3ccccc32)cc1	0.48
54	N#Cc1c(-c2ccccc2)cc(-c2ccccc2)nc1SCC(=O)Nc1ccc(Cl)cc1	-2.2
55	COc1cccc(CN2C(=O)c3ccccc3Sc3ccc(C(=O)NCCc4ccc(Cl)cc4)cc32)c1	-0.51
56	CCCC1(CNC2CCN(C(=O)c3cnccn3)CC2)CCC1	-1.2
57	Cc1ccc(Cn2c(=O)n(-c3cccc(C(F)(F)F)c3)c(=O)c3c(C)c(C)sc32)c(C)c1	-1.1
58	N#Cc1c(N)n(-c2cccc(Cl)c2)c2nc3ccccc3nc12	-0.18
59	Cn1cc(-c2ccc(C(=O)NC3CCCCC3O)cc2)c(-c2ccccc2)n1 (stereo not drawn)	0.43
60	c1ccc(Cc2nnc(SCc3nc(-c4cccs4)no3)n2-c2ccccc2)cc1	-2.3

# Ordered by length of the SMILES (ascending): part of the list above
No.	SMILES	Bm FixLJ act
53	CCc1ccc(NC(=O)N2c3ccccc3Sc3ccccc32)cc1	0.48
58	N#Cc1c(N)n(-c2cccc(Cl)c2)c2nc3ccccc3nc12	-0.18
51	CS(=O)(=O)c1ccc([C@@H](O)[C@@H](COC(=O)CN)NC(=O)C(Cl)Cl)cc1	-1.7
57	Cc1ccc(Cn2c(=O)n(-c3cccc(C(F)(F)F)c3)c(=O)c3c(C)c(C)sc32)c(C)c1	-1.1

# In the list so far, 2 contain a COOH group.
No.	SMILES	Bm FixLJ act
40	Cc1cc(C)n(-c2nc3ccccc3nc2Nc2cc(C(=O)O)ccc2C)n1	0.57
49	Cc1cccc(CN2CC(C(=O)O)C3(CCN(C(=O)C4CCCC4)CC3)C2)n1 (stereo not drawn)	0.95

# (listing goes on)
No.	SMILES	Bm FixLJ act
61	COc1ccccc1OCCCn1c(-c2ccc(Cl)cc2)nc2ccccc2c1=O	-1.1
62	CCC(=O)Nc1ccc(-c2nc3ncccc3o2)cc1C	-0.97
63	CC(C(=O)N1CCN(C2C3CC4CC(C3)CC2C4)CC1)c1n[nH]c(=O)c2ccccc12 (stereo not drawn)	-2.1
64	Cc1nc(C(N)C(C)C)n(CC(=O)NCC2(Cn3ccnc3C)CC2)n1 (stereo not drawn)	0.74
65	COc1ccc(-c2coc3c2c(C)cc2oc(=O)c(C)c(C)c23)cc1	-2.2
66	COC(=O)N1CCCC(c2nnc(CN3CCCCC3)n2C)C1 (stereo not drawn)	-0.72
67	CC(C)NCC(O)c1ccc2ccccc2c1 (stereo not drawn)	-0.57
68	CCOC(=O)/C(C#N)=C/c1ccc(-c2ccccc2)o1	-0.44
69	CCOc1ccc(OCC)c(NC(=O)c2c(C)nn(-c3ccccc3)c2-n2cccc2)c1	-1.6
70	CCOC(=O)c1c(-c2ccc(C)cc2)csc1NC(=O)c1cc(=O)c2cc(C)cc(C)c2o1	1.3
71	CCNc1nc(C)c(C(=O)NCCCc2c(C)noc2C)s1	0.56
72	CCc1c(C)nn(CC(=O)Nc2nnc(SC(C)C)s2)c1C	-2

# Next section; the last 2 above are carried over.
No.	SMILES	Bm FixLJ act
71	CCNc1nc(C)c(C(=O)NCCCc2c(C)noc2C)s1	0.56
72	CCc1c(C)nn(CC(=O)Nc2nnc(SC(C)C)s2)c1C	-2
73	COc1ccc2c(c1)CCOC21CCN(C(=O)Cc2c(C)nc(C)[nH]c2=O)CC1	-0.53
74	CN1CCN(C2CN(C(=O)c3ccc4ccn(C)c4c3)CC2O)CC1 (stereo not drawn)	-0.07
75	CCN1CCC[C@H]1CNC(=O)c1cc(S(N)(=O)=O)ccc1OC	-1.3
76	CN(C)S(=O)(=O)c1ccc2c(c1)c(=O)c(C(=O)N1CCN(c3cccc(Cl)c3)CC1)cn2C	-2
77	O=C(CSc1oc(-c2ccc(F)cc2)nc1S(=O)(=O)c1ccccc1)c1ccc(Cl)cc1	-1.1
78	Cc1csc2nc(COc3ccc(NC(=O)C(C)C)cc3)cc(=O)n12	-1.1
79	Cc1cc(C)c(Cn2c(=O)n(Cc3ccccc3)c(=O)c3c(C)c(C)sc32)c(C)c1	-1.5
80	CC(C)c1cc(C(=O)NCc2nc(-c3ccccn3)no2)on1	-3
81	CCOc1ccc(C(=O)c2cn(CC(=O)Nc3ccc(Cl)cc3)c3cc4c(cc3c2=O)OCO4)cc1	-1.7
82	COCCCNC(=O)C1CCN(C(=O)c2cnn(-c3ccccc3)c2-n2cccc2)CC1	0.04
83	O=C(NC1CCN(Cc2ccccn2)CC1O)c1onc2c1CCCC2 (stereo not drawn)	-2.5
84	O=C(NCc1cccc(Cl)c1)c1cc2c(s1)-c1ccccc1OC2	1.6
85	COc1ccc(CN2CCN(C(=O)COc3ccccc3)CC2)c(OC)c1	1.7
86	O=C(Cn1ncc2c3ccccc3n(Cc3ccccc3)c2c1=O)NCCCN1CCCCC1	-0.66
87	CCn1cc(C(=O)O)c(=O)c2cc3c(cc21)OCO3	-2.3
88	O=C(c1ccc2c(c1)N(Cc1ccccc1F)C(=O)c1ccccc1S2=O)N1CCOCC1 (stereo not drawn)	-1.2
89	COc1ccccc1/C=C/c1nc(C#N)c(N2CCN(C)CC2)o1	-1.4
90	Cc1ccc(NC(=O)CCS(=O)(=O)c2ccc(Br)s2)c(Br)c1	-0.94
91	O=C(c1ccc2c(c1)N(Cc1ccccc1)C(=O)c1ccccc1S2=O)N1CCC(Cc2ccccc2)CC1 (stereo not drawn)	1.3
92	O=C(Cn1ncc2ccccc21)NC1COCC1Cc1ccncc1 (stereo not drawn)	1.5
93	CCOc1ccccc1C(=O)Nc1ccc(S(=O)(=O)Nc2ncccn2)cc1	-2.1
94	COc1ccc(-c2c3c(=O)n(C)c(=O)n(C)c3c3c(-c4cccc(C)c4)nc4ccccc4n23)cc1	0.15
95	Cc1cc(C)nc(NS(=O)(=O)c2ccc(NC(=O)c3nc(SC(C)C)ncc3Cl)cc2)n1	-1.2
96	Cc1nc(N2CCN(c3nsc4ccccc34)CC2)n(C)n1	-0.51
97	COc1ccc(NC(=O)c2sc3nc4c(cc3c2N)CN(C(C)C)CC4)c(OC)c1	-0.24
98	CCCCOc1ccc(Cn2c(=O)oc3ccccc32)cc1	-0.79
99	O=C(c1ccc2c(c1)N(Cc1ccccc1F)C(=O)c1ccccc1S2(=O)=O)N1CCc2ccccc21	-0.78
100	COc1ccccc1NC(=O)Cn1nnc(C(=O)NCc2ccc3c(c2)OCO3)c1N	-0.33
101	Nc1n[nH]c(C(=O)NCC2CCOc3ccccc3C2)c1Cl (stereo not drawn)	-2.1
102	COc1cc(-c2nc3ccccn3c2Nc2ccccc2C)ccc1O	-1.5
103	Cc1cc(C)nc(-c2ccc(C(=O)N(Cc3ccccn3)C3CC3)cc2)n1	0.1
104	Cc1cc(C)cc(N(CC(=O)NCc2ccccc2Cl)S(=O)(=O)c2c(C)[nH]c(=O)[nH]c2=O)c1	0.05
105	COc1ccc2c(c1)CCOC21CCN(C(=O)CCc2ccncc2)CC1	-0.19
106	CC1=C(C(=O)Nc2ccccc2)C(c2ccc(Br)cc2)n2nc(CCCO)nc2N1 (stereo not drawn)	-1.1
107	Cc1ccc(CCNC(=O)c2ccc3c(c2)N(Cc2ccccc2F)C(=O)c2ccccc2S3=O)cc1 (stereo not drawn)	0.19
108	COc1ccc(CCNC(=O)c2ccc3c(c2)N=C(C)c2cc(C)ccc2S3)cc1OC	-1.1
109	CCN(Cc1ccccc1)c1nc2c(S(=O)(=O)c3ccccc3)nnn2c2ccc(Cl)cc12	-1.7
110	CC1(C)CC(=O)c2cc(C(=O)Nc3ccc(Cl)cc3)c(=O)[nH]c2C1	0.17
111	CCOc1ccc(NC(=O)Cn2cc(S(=O)(=O)N3CCN(c4ccccc4F)CC3)c3ccccc3c2=O)cc1	0.22
112	COc1ccccc1-c1nnc(C2CCN(S(=O)(=O)c3ccc(F)c(C)c3)CC2)o1	-0.85
113	CC(CN1CCc2ccccc2C1)NC(=O)c1nc[nH]c1C(=O)O (stereo not drawn)	-1.1
114	O=S(=O)(c1cccc(F)c1)N1CCC(c2nc3ccccc3s2)CC1	0.17
